Mtb betalactam – beta-lactam sensitization of Mtb H37Rv; M. tuberculosis H37Rv growth with meropenem, percent inhibition; hits of this screen are not shown here; inhibition, % at 25 µM; actives 0.27% (n = 330,000); AID 434955;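 active = about 74% or more and at least 40 points above the plate without the antibiotic, then above 30% in a dose series; inconclusive = first-round hits that could not be retested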;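 note: growth measured after seven days incubation then overnight dye step; 0% = bacteria only wells and 100% = bacteria with antibiotic; twin plates without the antibiotic show which effects depend on it; some results filed as inactive read as strong as hits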
Arbovirus anti – antivirals against arbovirus infection; actives 0.37% (n = 200,000); arbovirus infection cell-based antiviral screen; AID 1251; inhibition, % at 10 µM;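 active = inhibition from about 30%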;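 note: bluetongue infection of BSR cells; cell survival read as ATP light after 72 h; 0% = infected wells without compound and 100% = uninfected wells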
YopH PTP inh – YopH (Yersinia) phosphatase inhibition; fluorescence Ex485/Em525; inhibition, %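 (about 10 µM by stock and volumes)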; actives 0.16% (n = 140,000);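 active = inhibition of 50% or more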;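 note: controls were vehicle for no effect and minimum signal wells for full effect; inactives centre near -20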
Mtb growth – M. tuberculosis H37Rv growth inhibitors, H37Rv strain (AID 1626); M. tuberculosis H37Rv growth inhibition; higher % means a stronger effect; inhibition, % at 10 µM, or IC50 in µM where a hit was titrated; actives 0.95% (n = 220,000);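 active = confirmed in a dose series; inconclusive = inhibition above 80% but not taken into the dose series; inactive = below 80% or under 30% at every dose of the series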;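 note: bacteria incubated seven days before Alamar blue readout; 0% = bacteria only wells and 100% = bacteria with antibiotic wells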
RecA intein inh – inhibitors of M. tuberculosis RecA intein splicing | P9WHJ3 | cell-free RecA intein splicing, fluorescence | inhibition, %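 (about 9 µM by stock and volumes)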 | actives 0.75% (n = 290,000) | AID 2221; in the data active = inhibition above about 30%; inconclusive = no clear call, values can overlap the other calls;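 note: 0% = vehicle wells and 100% = reference inhibitor control wells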
Target sequence (P9WHJ3 whole entry, looked up): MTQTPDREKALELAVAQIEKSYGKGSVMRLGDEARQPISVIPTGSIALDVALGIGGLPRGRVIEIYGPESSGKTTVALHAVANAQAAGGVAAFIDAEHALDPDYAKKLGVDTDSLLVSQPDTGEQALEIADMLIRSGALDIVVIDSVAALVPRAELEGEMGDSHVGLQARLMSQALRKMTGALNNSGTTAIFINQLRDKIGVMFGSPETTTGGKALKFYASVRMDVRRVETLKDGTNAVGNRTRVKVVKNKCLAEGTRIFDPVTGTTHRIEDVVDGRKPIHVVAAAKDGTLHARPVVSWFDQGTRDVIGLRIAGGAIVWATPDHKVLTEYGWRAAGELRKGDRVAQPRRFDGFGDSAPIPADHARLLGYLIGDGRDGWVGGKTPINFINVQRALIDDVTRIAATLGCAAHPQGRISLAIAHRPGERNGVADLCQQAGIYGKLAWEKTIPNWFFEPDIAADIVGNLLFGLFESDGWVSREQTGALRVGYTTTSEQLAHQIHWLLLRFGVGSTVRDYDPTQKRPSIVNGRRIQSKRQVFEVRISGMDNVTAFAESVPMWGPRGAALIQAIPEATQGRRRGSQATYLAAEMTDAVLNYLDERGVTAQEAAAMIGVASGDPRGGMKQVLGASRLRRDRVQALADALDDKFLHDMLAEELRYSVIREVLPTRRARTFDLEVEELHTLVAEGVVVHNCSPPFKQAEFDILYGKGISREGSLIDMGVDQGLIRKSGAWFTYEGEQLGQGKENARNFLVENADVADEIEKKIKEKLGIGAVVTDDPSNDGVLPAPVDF
Arbovirus anti repeat – also measured in Arbovirus anti; calls as there; inhibition, %; measured here: 10K subset replicate screen; many hits read low in the repeat;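 first of two repeat runs on a subset; 0% = infected and 100% = uninfected wells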
Active calls of the source: *. An excerpt; the hit share may differ from the screen's.

For COC(=O)c1sc2nc(CSc3nc4ccc(C)cc4[nH]3)[nH]c(=O)c2c1C the results were Mtb betalactam -1, Arbovirus anti 1, YopH PTP inh 5, Mtb growth -10% and RecA intein inh 1.2.
For CCN1CCN(c2ccc(S(=O)(=O)N3CCCCC3)cc2NC(=O)c2cccc(NC(C)=O)c2)CC1 the results were Mtb betalactam -8 and RecA intein inh -0.2.
Screening Cc1ccc(-n2ncc(C(=O)Nc3ccc(Cl)cc3)c2C2CCNCC2)cc1C returned Mtb betalactam -15, Arbovirus anti -28, Mtb growth 1% and RecA intein inh 3.8.
`CC1CCN(c2c(NCc3ccc(C(=O)N4c5ccccc5CC4C)cc3)c(=O)c2=O)CC1` (centres undefined) gave Mtb betalactam 2, Arbovirus anti -9, YopH PTP inh -23, Mtb growth 7%, RecA intein inh -1.1 and Arbovirus anti repeat -2.
Screening Cc1nn2c(-c3cccc(NC(=O)c4ccco4)c3)nnc2c2ccccc12 returned Mtb betalactam 16, Arbovirus anti -3, YopH PTP inh -28, Mtb growth 4% and RecA intein inh 0.3.
CCOC(=O)c1ccc2[nH]c(C)c(C)c2c1 was read as Mtb betalactam 54, Arbovirus anti 3, YopH PTP inh -2, Mtb growth 70% and RecA intein inh -5.0.
For COc1cc(NC(=O)c2cccnc2)c(OC)cc1NC(=O)c1ccc(Br)cc1 the results were Mtb betalactam 7 and RecA intein inh 2.5.
CCN1C(=O)NC(=O)/C(=C\c2cn(CC(=O)O)c3ccccc23)C1=O was read as Mtb betalactam 1 and RecA intein inh 3.3.
Screening CCOc1ccc(CCNC(=O)c2ccc(=O)[nH]c2)cc1OCC returned Mtb betalactam 10 and RecA intein inh 0.5.
CCc1ccc(C(=O)NNC(=O)CN2C(=O)NC(CC)(c3ccccc3)C2=O)cc1 (centres undefined) was read as Mtb betalactam -13 and RecA intein inh 2.9.
O=C(CCSc1ccccc1)OCn1nnc2ccccc2c1=O was read as Mtb betalactam 67, Arbovirus anti 1, Mtb growth 3% and RecA intein inh -0.4.
N#Cc1cnc(SCC(=O)N2CCCCC2)nc1N was read as Mtb betalactam -9 and RecA intein inh 0.4.
Screening CC(C)NS(=O)(=O)c1ccc(NCCCn2ccnc2)c([N+](=O)[O-])c1 returned Mtb betalactam -2 and RecA intein inh -1.4.
Screening CCc1cccc(NC(=O)CSc2nnc(Cc3ccc(OC)cc3)c(=O)[nH]2)c1 returned Mtb betalactam -2 and RecA intein inh -2.0.
`COC(=O)C1=C(C)N(C(C)c2ccccc2)C(=O)C1` (centres undefined) gave Mtb betalactam 4, Arbovirus anti 4, YopH PTP inh -25, Mtb growth -9% and RecA intein inh -5.2.

Arranged by heavy-atom count (ascending): three of the compounds above.
`COC(=O)C1=C(C)N(C(C)c2ccccc2)C(=O)C1` (centres undefined) gave Mtb betalactam 4, Arbovirus anti 4, YopH PTP inh -25, Mtb growth -9% and RecA intein inh -5.2.
Screening CCOc1ccc(CCNC(=O)c2ccc(=O)[nH]c2)cc1OCC returned Mtb betalactam 10 and RecA intein inh 0.5.
For COc1cc(NC(=O)c2cccnc2)c(OC)cc1NC(=O)c1ccc(Br)cc1 the results were Mtb betalactam 7 and RecA intein inh 2.5.

The listing continues.
`CCCc1cc(=O)[nH]c(SCC(=O)c2c[nH]c3ccccc23)n1` gave Mtb betalactam -4, Arbovirus anti 18, Mtb growth -3% and RecA intein inh 1.6.
Screening Cc1ccc(NCc2nnc(SCC(=O)N3c4ccccc4Sc4ccccc43)o2)c(C)c1 returned Mtb betalactam -2, Arbovirus anti -3, YopH PTP inh -3, Mtb growth 11% and RecA intein inh -0.8.
CCOc1ccc(C(=O)NCC2(c3ccccc3)CCOCC2)cc1 was read as Mtb betalactam 10, Arbovirus anti 1, Mtb growth 5% and RecA intein inh 0.2.
For CCOc1ccccc1N1C(=O)CC(=O)NC1=O the results were Mtb betalactam 8 and RecA intein inh 0.0.
For Cc1ccc2[nH]c3c(NCc4ccccc4)ncnc3c2c1 the results were Mtb betalactam 52 and RecA intein inh 3.6.
`CC(NC(=O)C1CCC(C)(C(=O)O)C1(C)C)c1ccccc1` (centres undefined) gave Mtb betalactam 5 and RecA intein inh -1.6.
CN1CCN(S(=O)(=O)c2ccc(CNC(=O)c3ccccc3)s2)CC1 was read as Mtb betalactam -3 and RecA intein inh -0.2.
`NS(=O)(=O)c1ccc(NC(=O)CN2CCc3ccccc32)cc1` gave Mtb betalactam -12, Mtb growth -8% and RecA intein inh 3.4.
For CCN1C(=O)C2(C(C#N)=C(N)Oc3n[nH]c(-c4ccc(Cl)cc4)c32)c2ccccc21 (centres undefined) the results were Mtb betalactam -3, Arbovirus anti -2, YopH PTP inh 9, Mtb growth 3% and RecA intein inh 6.6.
For CCOC(=O)C1=C(N)OC2=C(C(=O)CCC2)C1c1ccc(C)s1 (centres undefined) the results were Mtb betalactam -2, Arbovirus anti 1, YopH PTP inh -24, Mtb growth -2% and RecA intein inh 1.5.
`CCOc1cc(/C=N/NC(=O)C2CC2)ccc1OC(C)C` gave Mtb betalactam -5 and RecA intein inh -1.1.
`CCOc1cc(C(=S)N2CCOCC2)ccc1OS(=O)(=O)c1ccc(Br)cc1` gave Mtb betalactam -17 and RecA intein inh -0.2.
For c1ccc(-c2nc(NCc3ccco3)c3ccccc3n2)cc1 the results were Mtb betalactam 9, Arbovirus anti -3, YopH PTP inh -27, Mtb growth -9% and RecA intein inh 11.
For O=C1c2ccccc2C(=O)N1CSc1ncccn1 the results were Mtb betalactam -4, Arbovirus anti -6, YopH PTP inh -3, Mtb growth 4%, RecA intein inh 2.2 and Arbovirus anti repeat 2.
For O=C(CN1C(=O)c2ccccc2S1(=O)=O)NCc1ccc2c(c1)OCO2 the results were Mtb betalactam 2, Arbovirus anti 8, YopH PTP inh 7, Mtb growth -4% and RecA intein inh -1.9.
COc1ccccc1NC(=O)N1CCCC1C(=O)NC12CC3CC(CC(C3)C1)C2 (centres undefined) was read as Mtb betalactam -3, Arbovirus anti 2, YopH PTP inh -32, Mtb growth -5% and RecA intein inh -4.5.
`CC[N+](C)(C)CC/C=C1/c2ccccc2Sc2ccc(Cl)cc21` gave Mtb betalactam -12, Mtb growth 1% and RecA intein inh 14.
`NS(=O)(=O)c1cccc(NC(=O)C(Cc2ccccc2)NC(=O)c2ccccc2)c1` (centres undefined) gave Mtb betalactam 7 and RecA intein inh 1.2.
For CCC(=O)OC1(C)C(=O)C=C2C=C(CCCCNC(=O)OC(C)(C)C)OC=C2C1=O (centres undefined) the results were Mtb betalactam -4, Mtb growth -8% and RecA intein inh -7.1.
`CC(C)S(=O)(=O)c1csc(C(=O)NN)c1-n1cccc1` gave Mtb betalactam 1, Mtb growth -7% and RecA intein inh -6.9.
Screening O=C(O)C1CCCCN1S(=O)(=O)c1ccc2ccccc2c1 (centres undefined) returned Mtb betalactam -13, Arbovirus anti -2, YopH PTP inh -20, Mtb growth -2% and RecA intein inh -0.8.
CC(C)(CNC(=O)c1ccc(NS(=O)(=O)c2ccc(Br)cc2)cc1)N1CCOCC1 was read as Mtb betalactam 2 and RecA intein inh 4.0.
For CC1=Nc2ccccc2/C1=C\c1sc(Nc2ccc(C)cc2)nc1O the results were Mtb betalactam 93, Arbovirus anti -2, YopH PTP inh -51, Mtb growth 77% and RecA intein inh -1.7.
O=C(c1cccc(Cl)c1)N1CCN(c2ccc(N3CCOCC3)nn2)CC1 was read as Mtb betalactam -13 and RecA intein inh -7.0.
For COc1cccc(OC)c1OCCCCCc1c(C)n[nH]c1C the results were Mtb betalactam -10, Arbovirus anti 6, YopH PTP inh -43, Mtb growth 5% and RecA intein inh 2.5.
Screening COc1ccc(CNC(=O)CNC(C)c2ccc(F)cc2)cc1 (centres undefined) returned Mtb betalactam -3 and RecA intein inh 1.5.
`CC1CCCN(c2ccc(C(=O)NCc3ccccc3)cn2)C1` (centres undefined) gave Mtb betalactam 3, Arbovirus anti -12, Mtb growth -7% and RecA intein inh 3.5.
Screening O=C(CSC1CN(C(c2ccccc2)c2ccccc2)C1)N/N=C/c1ccccc1 returned Mtb betalactam -12, Mtb growth -2% and RecA intein inh -2.2.
c1ccc(OCCN2CCN(C(c3ccccc3)c3ccccc3)CC2)cc1 was read as Mtb betalactam 85 and RecA intein inh 13.
Screening Cc1ccc(/C=N/NC(=O)CSCc2ccc(Cl)cc2)cc1 returned Mtb betalactam 86, Arbovirus anti -9, YopH PTP inh -7, Mtb growth inconclusive and RecA intein inh 3.2.
Screening Cc1ccc(CNC(=O)c2cccc(OCc3c(C)noc3C)c2)cc1 returned Mtb betalactam -17, Arbovirus anti -4, YopH PTP inh -34, Mtb growth -7% and RecA intein inh -1.6.
Screening CCN1C(=O)C(C(=O)Nc2ccc(OC)cc2)C2CC1(C)Oc1ccccc12 (centres undefined) returned Mtb betalactam -8, Arbovirus anti -1, YopH PTP inh -27, Mtb growth 11% and RecA intein inh 0.1.
Screening CCOC(=O)C1(c2ccccc2)CCN(CCC(=O)Nc2ccccc2OC)CC1 returned Mtb betalactam 6 and RecA intein inh -5.2.
Screening CCOC(=O)CN1CC23C=CC(O2)C(C(=O)Nc2cc(OC)ccc2OC)C3C1=O (centres undefined) returned Mtb betalactam 1, Arbovirus anti 5, YopH PTP inh -26, Mtb growth 2% and RecA intein inh 2.1.
Screening COc1ccc(N2CC(C(=O)N3CCN(c4ccccc4OC)CC3)CC2=O)cc1 (centres undefined) returned Mtb betalactam -3 and RecA intein inh 1.8.
Cc1cc(C)cc(NC(=O)N2CCN(Cc3ccc4c(c3)OCO4)CC2)c1 was read as Mtb betalactam 7, Mtb growth 3% and RecA intein inh -0.5.
Screening CC1CCN(c2ccccc2NC(=S)NC(=O)c2cccs2)CC1 returned Mtb betalactam 10, Arbovirus anti -14, YopH PTP inh -56, Mtb growth 4% and RecA intein inh 4.1.
Screening CCNS(=O)(=O)c1ccc(OC)c(C)c1 returned Mtb betalactam 2, Arbovirus anti 3, YopH PTP inh -8, Mtb growth -13% and RecA intein inh -0.1.
`COc1cc2c(c(OC)c1OC)-c1ccc(OC)c(=O)cc1C(NC(C)=O)CC2` (centres undefined) gave Mtb betalactam 3 and RecA intein inh -2.8.
CCc1nc(SCC(=O)c2ccc3c(c2)OCCO3)c2ccccc2n1 was read as Mtb betalactam 8, Arbovirus anti 19, YopH PTP inh -42, Mtb growth -7% and RecA intein inh 9.3.
For Cc1ccc([N+](=O)[O-])cc1S(=O)(=O)Nc1ccc(-c2ccc(N3CCOCC3)nn2)cc1 the results were Mtb betalactam -4 and RecA intein inh -0.5.
Screening Cc1ccc2occ(C3N[C@H](C(=O)O)CS3)c(=O)c2c1 (some centres undefined) returned Mtb betalactam 2, Arbovirus anti -13, YopH PTP inh -140, Mtb growth -3% and RecA intein inh -0.9.
CCN(Cc1ccncc1)C(=O)c1ccc(C)o1 was read as Mtb betalactam -5 and RecA intein inh 0.0.
Screening CC(=O)C1CCCN(C(=O)c2ccc3oc(CCc4ccccc4)nc3c2)C1 (centres undefined) returned Mtb betalactam -2 and RecA intein inh 1.3.
COCCn1cnc2c1c(=O)n(CC(=O)OCC(=O)NCC(F)(F)F)c(=O)n2Cc1ccccc1 was read as Mtb betalactam 3, Arbovirus anti 8, YopH PTP inh -30, Mtb growth -1% and RecA intein inh -1.0.
`Nc1nc(N)nc(-c2ccc(Cl)cc2)n1` gave Mtb betalactam 3, Arbovirus anti -2, YopH PTP inh 10 and Mtb growth -8%.
Screening COC(=O)c1c(SCc2cccc3ccccc23)nc(=O)[nH]c1C returned Mtb betalactam -5, Mtb growth 3% and RecA intein inh -0.6.
Screening COc1ccc(C2C(C(=O)N3CCCC3)CC(=O)N2c2ccc(OC)cc2)cc1 (centres undefined) returned Mtb betalactam 1, Arbovirus anti -2, YopH PTP inh -33, Mtb growth -10% and RecA intein inh 3.6.
For O=C(OCC(=O)c1c[nH]c2ccccc12)C1=COCCO1 the results were Mtb betalactam 82, Arbovirus anti -1, YopH PTP inh -3, Mtb growth 5% and RecA intein inh 8.2.
For COc1ccc(/C=N/n2c(=O)[nH]c3c([nH]c4ccc(Br)cc43)c2=O)cc1CN1CCOCC1 the results were Mtb betalactam -7, Arbovirus anti -3, YopH PTP inh -39, Mtb growth -5% and RecA intein inh 2.8.

An excerpt from further up, as a working copy:
COCCn1cnc2c1c(=O)n(CC(=O)OCC(=O)NCC(F)(F)F)c(=O)n2Cc1ccccc1 was read as Mtb betalactam 3, Arbovirus anti 8, YopH PTP inh -30, Mtb growth -1% and RecA intein inh -1.0.
`Nc1nc(N)nc(-c2ccc(Cl)cc2)n1` gave Mtb betalactam 3, Arbovirus anti -2, YopH PTP inh 10 and Mtb growth -8%.
Screening COC(=O)c1c(SCc2cccc3ccccc23)nc(=O)[nH]c1C returned Mtb betalactam -5, Mtb growth 3% and RecA intein inh -0.6.
